Bioassay records from PubChem.
Insulin prom inh – inhibitors of insulin promoter-driven GFP, primary screen, imaging, TRM-6 cells (human fetal islet line), eGFP reporter, cell count; reporter expression induced with tamoxifen; inhibition, % at 2 µM; actives 0.9% (n = 130,000);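 active = inhibition above the mean plus 3 SD, with well images judged a real hit on visual review, cut at about 60% in these data, passing the limit was not always enough; inconclusive = inhibition over the cutoff but images rejected on review; inactive = inhibition not above the cutoff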
HSV augment – enhancers of HSV replication in host cells, fold increase, host cell viability; HSV replication augmentation in cells; maximum fold increase; actives 0.005% (n = 220,000);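 active = peak rise of 1.5-fold or more in the series; inconclusive = self-fluorescent or not available for retest; tested in PC3 cells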;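 note: first round at 10 µM; read as green reporter fluorescence; hits show the peak of a series up to 25 µM; 1 = signal of infected wells without compound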
RGS16-Gao HTS – modulators of RGS16 binding to Galphao, primary screen, biochemical, human proteins, multiplexed bead flow cytometry; Regulator of G-protein signaling 16 (Homo sapiens) + Guanine nucleotide-binding protein …; bead-based flow cytometry RGS16-Galphao binding, fluorescence; actives lie on both sides; binding response (% of control), % at 10 µM; actives 0.38% (n = 220,000); AID 1441, 2008;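 active = below 25% or above 175%, edge rows of some plates excepted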;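 note: Galphao activated by GDP with aluminum fluoride before binding; 100% = wells without compound and 0% = beads without RGS; some results beyond the cut were filed as inactive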
GALR2 agonist – GALR2 receptor agonists, primary screen, cell-based. Galanin receptor type 2 (Homo sapiens), O43603. GALR2-expressing cells, agonist activation read-out. activation, %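 (tested at 5 µM)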. actives 0.48% (n = 140,000);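 active = above mean plus 3 SD of all compounds, about 5% in these data, not always enough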;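 note: 0% = vehicle buffer wells and 100% = reference agonist at full effect; tested in CHO reporter cells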
PKD1 inh – inhibitors of human PKD1 kinase, biochemical, fluorescence polarization. Serine/threonine-protein kinase D1 (Homo sapiens), Q15139. PKD1 kinase fluorescence polarization assay. inhibition, %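 (about 10 µM by stock and volumes)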. actives 0.056% (n = 200,000). AID 797, 2007;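 active = inhibition of 50% or more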;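 note: controls were vehicle for no effect and a reference inhibitor for full effect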
Target sequence (Q15139 whole entry, looked up): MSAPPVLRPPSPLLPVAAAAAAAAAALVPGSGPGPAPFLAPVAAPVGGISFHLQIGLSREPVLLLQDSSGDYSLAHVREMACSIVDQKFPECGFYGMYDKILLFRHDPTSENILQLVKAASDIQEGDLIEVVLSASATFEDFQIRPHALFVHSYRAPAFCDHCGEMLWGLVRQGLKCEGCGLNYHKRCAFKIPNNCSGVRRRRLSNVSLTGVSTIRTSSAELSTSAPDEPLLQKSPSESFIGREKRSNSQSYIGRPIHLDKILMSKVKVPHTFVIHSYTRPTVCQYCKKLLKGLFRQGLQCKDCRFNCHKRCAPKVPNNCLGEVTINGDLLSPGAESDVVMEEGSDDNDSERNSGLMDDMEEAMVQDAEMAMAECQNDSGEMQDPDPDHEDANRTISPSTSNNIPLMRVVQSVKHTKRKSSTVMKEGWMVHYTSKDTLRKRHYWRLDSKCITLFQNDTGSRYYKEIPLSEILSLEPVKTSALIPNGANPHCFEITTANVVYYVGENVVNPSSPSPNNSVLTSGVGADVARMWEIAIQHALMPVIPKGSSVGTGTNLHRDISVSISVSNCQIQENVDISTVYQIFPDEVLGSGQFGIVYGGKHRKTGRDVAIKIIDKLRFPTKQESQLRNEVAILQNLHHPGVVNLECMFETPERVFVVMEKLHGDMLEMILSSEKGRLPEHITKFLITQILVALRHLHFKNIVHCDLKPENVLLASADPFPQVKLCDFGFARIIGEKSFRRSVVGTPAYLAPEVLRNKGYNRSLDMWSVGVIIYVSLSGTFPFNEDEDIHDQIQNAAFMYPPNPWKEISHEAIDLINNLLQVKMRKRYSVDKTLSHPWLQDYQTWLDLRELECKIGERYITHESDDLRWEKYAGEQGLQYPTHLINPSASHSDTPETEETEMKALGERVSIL
Insulin prom inh cell count – also measured in Insulin prom inh; calls as there; normalized cell count, %; measured here: cell count, toxicity; reference of the scale not given here;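 cells exposed to compound for 48 h; stained nuclei by imaging scaled within each plate; lower means fewer cells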
HSV augment primary fold – second read-out of HSV augment, no call of its own (marks repeat the call); fold increase; compound at 10 µM; measured here: primary screen fold increase 10 uM; tested in PC3 cells;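 GFP signal in the first replicate; 1 = infected wells without compound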
* hit, by the source's call; i = inactive; ? = inconclusive; . = no result given.

smiles	Insulin prom inh	Insulin prom inh cell count	HSV augment	HSV augment primary fold	RGS16-Gao HTS	GALR2 agonist	PKD1 inh
Cc1cnnc2ccc3c(no[n+]3[O-])c12	-13	19	i	0.96	117	-2.5	-1
CCCCNC(=O)CSc1nnc(-c2ccco2)n1C	.	.	i	1.1	102	-0.7	-9
CN(CC(=O)NCCCN1CCOCC1)S(=O)(=O)c1ccc(Br)cc1	-216	89	i	1.2	107	-3.6	2
COc1ccc(S(=O)(=O)N2CCCC(C(=O)NCCC(C)C)C2)cc1 (configuration not stated)	.	.	i	0.94	102	.	5
C=CCn1c(-c2cc(-c3ccc(C)cc3)nc3ccccc23)n[nH]c1=S	.	.	i	1	99	.	-7
CCc1nc(SCC(=O)Nc2nccs2)c2oc3ccccc3c2n1	.	.	.	.	97	3.6	-8
CC(=O)Nc1ccc(S(=O)(=O)NC2=C(N3CCN(c4ccc(F)cc4)CC3)C(=O)c3ccccc3C2=O)cc1	-14	154	.	.	89	-1.9	-5
Cc1ccc(-n2nnnc2SCC(=O)NC2CCCc3ccccc32)cc1 (configuration not stated)	17	87	i	0.95	100	-2.5	-4
CN(Cc1cn(C)nc1-c1ccccc1F)Cc1nccn1C	.	.	i	1	98	.	-4
O=C(O)c1ccc(/C=N/Nc2ccc(C(F)(F)F)cn2)cc1	0	56	i	0.99	109	.	12
COc1ccc(CNC(=S)NC(C)CCc2ccccc2)cc1 (configuration not stated)	.	.	i	1	101	.	-1
CC1=NN(c2ccccc2)C(=O)C1C(=O)c1ccc([N+](=O)[O-])cc1 (configuration not stated)	67	126	i	0.97	101	.	-3
OCCN1CCN(CCCN2c3ccccc3Sc3ccc(C(F)(F)F)cc32)CC1	5	90	i	0.96	105	1.3	-10
Cc1nn(Cc2ccccc2Cl)c(C)c1NC(=O)C1C2CCC(O2)C1C(=O)O (configuration not stated)	-119	152	i	0.94	84	-1.3	0
c1ccc(-c2noc(-c3ccno3)n2)nc1	.	.	i	1.1	104	.	.
COC(=O)[C@H]1Cc2cnoc2C[C@]1(C)C(=O)O	0	176	i	0.87	104	-0.7	-7
O=C(c1ccccc1)c1nn(-c2ccc(Cl)cc2)c(=O)cc1C(F)(F)F	27	100	i	0.62	101	-2.9	-1
Cc1ccc(NC(=O)CN2C(=O)NC3(CCc4ccccc43)C2=O)cc1Cl (configuration not stated)	-9	96	i	0.83	97	-3.7	-8
N=C1C(c2nc3ccccc3[nH]2)=C(O)CN1NC(=O)COc1cccc(F)c1	-14	139	i	0.97	98	-1.3	-16
C=CCn1c(-c2ccccc2OCC)n[nH]c1=S	.	.	i	1	92	.	0
O=C(NCc1ccc(F)cc1)c1cc(-c2ccco2)on1	44	95	i	0.94	85	-0.4	-8
O=C(c1cnccn1)N(Cc1ccco1)C1(C(=O)NC2CCCCC2)CCCCC1	-40	107	i	0.96	-54*	-2.3	-3
CC(C)n1c(-c2ccccc2F)n[nH]c1=S	36	112	i	0.96	98	-2.5	-13
CSc1ccc(NC(=O)Nc2cc(C)ccn2)cc1	.	.	i	0.92	97	.	.
O=C1CCCC2=C1C(c1cccc(O)c1)C1=C(N2)c2ccccc2C1=O (configuration not stated)	.	.	i	0.85	95	.	0
CN(C)CCCNc1nc(N)c([N+](=O)[O-])c(NCCO)n1	.	.	i	0.92	119	.	.
CN1CCN(CCCc2c3c(cc4c2CCC4)CCC3)CC1	.	.	i	0.98	100	-0.8	-13
Cc1cc2oc(C(=O)NC3CCS(=O)(=O)C3)c(C)c2cc1C (configuration not stated)	19	50	i	0.89	101	0.4	0
O=C(c1ccccc1)N1CCCC(C(=O)N2CCc3ccccc3C2)C1 (configuration not stated)	17	105	i	1	98	-2.5	-3
CCN(CC(=O)NC(c1ccccc1)c1ccccc1)Cc1nc2ccccc2c(=O)[nH]1	-5	84	i	0.96	97	-0.9	0
CN(C)C(=O)CNc1n[nH]c(=S)[nH]c1=O	.	.	i	1.2	105	.	.
Cc1ccoc1C(=O)Nc1cccc(Oc2ccccc2)c1	-50	107	i	1.1	105	0.2	2
Nc1nc(CN2CCN(c3ccccc3)CC2)nc(Nc2ccc(Cl)cc2)n1	.	.	i	0.96	104	.	2
CCCOc1ccc(-c2c(C(=O)N/N=C/c3ccc(OC)cc3)nnn2-c2nonc2N)cc1	44	85	i	1	100	-0.7	7
CC(=O)c1c(C)[nH]c(C(=O)CN2C(=O)NC(C)(CCC(C)C)C2=O)c1C (configuration not stated)	44	94	i	0.91	98	.	-5
CCc1ccc(NC(=S)N2CCNC(=O)C2CC(=O)OC)cc1 (configuration not stated)	.	.	i	0.98	104	.	0
Cc1cc(O)ccc1Nc1nc2ccccc2nc1Nc1ccc(O)cc1C	.	.	?	.	93	0.3	-11
CCCC(=O)NC(c1cccs1)c1cc([N+](=O)[O-])c2cccnc2c1O (configuration not stated)	21	129	i	0.72	94	-0.9	-10
O=C(N=Nc1c(O)[nH]c2ccccc12)c1ccc2c(c1)OCO2	.	.	i	0.89	102	.	0
COc1ccc(Cl)cc1NC(=O)CN1C(=O)CC(C)S(=O)(=O)c2ccccc21 (configuration not stated)	.	.	i	0.97	102	.	-2
CCn1c(Cc2ccccc2)nnc1SCC(=O)OC(C)C	0	126	i	1.1	105	-0.3	-6
CCOC(=O)c1[nH]c2cc(OC)c(OC)cc2c1N	0	78	i	0.81	99	-1.6	-2
Clc1ccc(CN2C3=NCCN3c3ccccc32)cc1	.	.	i	0.87	99	-1.5	-9
COCC(O)CNc1ccccc1 (configuration not stated)	17	82	i	1.1	101	-1.4	-10
CC(=O)OCC(OC(C)=O)C(OC(C)=O)C(OC(C)=O)C(=O)Nc1ccc(C)cc1C (configuration not stated)	.	.	i	0.83	97	-1.0	7
O=C(NCc1nc2ccccc2[nH]1)c1cccs1	.	.	i	0.94	105	-2.3	-8
Cn1cc(S(=O)(=O)N2CCC(C(N)=O)CC2)c(=O)n(C)c1=O	.	.	i	1	104	.	4
Cc1nnc2n1NC(c1ccc(Cl)cc1)C(C(=O)N1CCC(C)CC1)S2 (configuration not stated)	.	.	i	0.96	95	-0.5	-12
COC(=O)/C=C1\N/C(=N\c2nc(C)cc(C)n2)N(c2ccc(Cl)cc2)C1=O	.	.	i	1	101	.	.
CCOCCCNC(=O)/C(C#N)=C/c1ccccc1F	.	.	i	1	104	.	-11
O=C(CN1C(=O)S/C(=C\c2ccc(O)cc2)C1=O)c1ccccc1	.	.	i	0.89	102	.	-6
COC(=O)c1ccc(-c2csc(NC(=O)c3ccc(S(=O)(=O)N4CCc5ccccc5C4)cc3)n2)cc1	-8	109	i	0.64	111	-1.7	-7
O=C(/C=C/c1ccccc1)c1ccccc1	41	59	i	0.68	102	0.0	-16
Cc1ccc(C(=O)N/N=C2\CCCc3ccccc32)c(C)c1	0	82	i	0.95	104	.	-8
CCN1CC(CN(C)Cc2nc(-c3ccco3)oc2C)CC1=O (configuration not stated)	.	.	i	1.1	96	.	-3
Cc1nc(NC(=S)NC(=O)c2cccs2)ccc1Br	58	172	i	0.97	109	0.4	10
CCOC(=O)N1CCc2c(sc3nc4n(c(=O)c23)N=C(c2ccc(OC)cc2)CS4)C1	.	.	i	0.97	96	.	.
O=C1c2ccccc2C(=O)N1CCCCON1C(=O)c2ccccc2C1=O	26	121	i	0.99	103	0.7	-13
CCn1c(=O)n(CC(=O)Nc2ccc(F)cc2)c(=O)c2ccccc21	29	105	i	0.94	98	.	2
CCOC(=O)c1ccc(Oc2c(C)oc3cc(OS(C)(=O)=O)ccc3c2=O)cc1	7	101	i	1	96	-0.1	5

5 entries drawn at random from the list so far, as already listed:
smiles	Insulin prom inh	Insulin prom inh cell count	HSV augment	HSV augment primary fold	RGS16-Gao HTS	GALR2 agonist	PKD1 inh
Cc1ccc(-n2nnnc2SCC(=O)NC2CCCc3ccccc32)cc1 (configuration not stated)	17	87	i	0.95	100	-2.5	-4
CCCCNC(=O)CSc1nnc(-c2ccco2)n1C	.	.	i	1.1	102	-0.7	-9
Cc1ccc(NC(=O)CN2C(=O)NC3(CCc4ccccc43)C2=O)cc1Cl (configuration not stated)	-9	96	i	0.83	97	-3.7	-8
Cc1nn(Cc2ccccc2Cl)c(C)c1NC(=O)C1C2CCC(O2)C1C(=O)O (configuration not stated)	-119	152	i	0.94	84	-1.3	0
OCCN1CCN(CCCN2c3ccccc3Sc3ccc(C(F)(F)F)cc32)CC1	5	90	i	0.96	105	1.3	-10

Additional compounds.
smiles	Insulin prom inh	Insulin prom inh cell count	HSV augment	HSV augment primary fold	RGS16-Gao HTS	GALR2 agonist	PKD1 inh
COc1cc(OC)c(NC(=O)c2ccc(Br)o2)cc1Cl	43	93	i	0.92	93	-0.1	-3
COc1c(OC)c(O)c2c(=O)c(O)c(-c3ccccc3)oc2c1OC	.	.	i	1.1	97	.	10
O=C1c2cccnc2C(=O)N1Cc1ccc(F)cc1	-7	75	i	0.97	77	-1.4	1
COc1cccc(C(C#N)N2N=C(C)CC2(C)C)c1O (configuration not stated)	-20	150	i	0.95	99	-1.7	-11
COc1cc(SC)ccc1C(=O)N(Cc1ccccc1)c1ccccn1	.	.	i	0.95	93	.	.
CCOC(=O)C(CSCc1ccccc1)NC(=O)OC(C)(C)C (configuration not stated)	-18	102	i	1.1	-920*	-0.7	3
O=S(=O)(N1CCCCC1)n1nnc2ccccc21	-6	70	i	1.1	103	-0.1	2
Cn1nnnc1SCC(=O)N1CCN(S(=O)(=O)c2ccccc2)CC1	.	.	i	0.98	107	.	0
Cn1nccc1/C=C(/C#N)S(=O)(=O)c1ccccc1	-32	74	i	1.1	107	0.1	-7
CCCCOC(=O)Nc1ccc(S(=O)(=O)Nn2cnnc2)cc1	0	108	i	1.1	106	-1.6	15
CCc1cc2cccc(C)c2nc1SCC(=O)N1CCN(C(=O)c2ccco2)CC1	.	.	i	0.95	106	-1.3	-1
O=C(COc1cccnc1[N+](=O)[O-])Nc1ccccc1Sc1ccccc1	-9	57	i	0.9	96	-0.8	-2
COCCN(CC(=O)Nc1ccc(F)cc1)S(=O)(=O)c1ccc(S(=O)(=O)N2CCCC2)cc1	.	.	i	0.85	101	-1.1	8
C/C(CC(=O)Nc1ccc2c(c1)OCCO2)=N\NC(=O)C(=O)Nc1ccccc1C	30	105	i	1	103	.	-2
Cc1cc(C)c2c(N)c(C(=O)Nc3ncc(C)s3)sc2n1	-286	55	i	1	111	-0.6	19
COc1ccc2c(c1)O[C@@H](c1ccc3c(c1)OCO3)[C@H](OC(=O)Nc1cc(OC)c(OC)c(OC)c1)C2=O	20	114	i	0.56	104	-1.5	5
Cc1ccccc1CSCC(=O)c1c(N)n(CC(C)C)c(=O)n(C)c1=O	-3	119	i	0.97	102	0.2	7
CCc1ccc(Cc2cnc(NC(=O)C3=NCCN3)s2)cc1	.	.	i	0.86	107	.	-6
COc1cccc2c(=O)n(CC(=O)N3CCCCC3)ccc12	.	.	i	0.93	88	-1.9	-6
COc1ccc(/C=C2\SC(=N)N(c3nccs3)C2=O)cc1OC	6	63	i	0.88	99	-0.1	6
COc1ccc(N=Nc2nc3ccc(Br)cc3n2C)cc1	-35	73	.	.	99	-4.5	15
Cc1cc(NN)nc(NS(=O)(=O)c2ccccc2Cl)n1	33	146	i	0.98	103	.	-2
CC(C)OC(=O)c1cccc(C(=O)OCc2ccco2)n1	.	.	.	.	101	-0.9	8
O=S(=O)(c1ccccc1)N(Cc1ccccc1)c1ccccn1	-7	71	i	0.92	102	-0.6	-5
Cn1c(=O)c2c(SCc3ccccn3)nc(CC(C)(C)C)nc2n(C)c1=O	.	.	i	0.74	99	-0.5	2
CCS(=O)(=O)C(=C1Nc2ccccc2N1)S(=O)(=O)CC	20	84	i	0.98	100	-1.1	-9
COC(=O)c1ccc(/C=N/NC(=O)c2ccccc2Cl)cc1	-18	88	i	0.97	103	-0.9	1
